D2 PAM: positive allosteric modulators of human D2 dopamine receptor; P14416; DiscoveRx D2 beta-arrestin cells, luminescence, 90 min; 100% = 57 uM dopamine signal; potentiation, % (test concentration not listed); 0.23% of 360,000 active; active = potentiation of 50% or more; inconclusive = 30% to 50%; inactive = 30% or less;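 note: compound concentration not given in the record; tested on top of an EC20 dose of dopamine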
Target sequence (P14416 whole entry, looked up): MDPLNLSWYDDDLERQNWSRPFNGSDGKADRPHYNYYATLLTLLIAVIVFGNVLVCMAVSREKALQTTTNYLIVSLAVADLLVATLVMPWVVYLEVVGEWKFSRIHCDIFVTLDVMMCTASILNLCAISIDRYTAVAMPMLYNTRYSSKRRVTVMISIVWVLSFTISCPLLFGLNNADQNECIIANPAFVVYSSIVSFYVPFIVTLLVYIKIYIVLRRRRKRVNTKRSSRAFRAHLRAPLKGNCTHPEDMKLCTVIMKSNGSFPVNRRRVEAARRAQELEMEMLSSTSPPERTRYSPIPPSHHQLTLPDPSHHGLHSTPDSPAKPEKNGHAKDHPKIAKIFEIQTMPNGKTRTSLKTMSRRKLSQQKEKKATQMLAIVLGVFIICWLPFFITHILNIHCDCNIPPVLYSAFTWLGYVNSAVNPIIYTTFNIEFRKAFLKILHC
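PathHunter D2 cells, attached overnight at 37 deg C, received compound in DMSO plus dopamine at EC20 (50 nM final) for 90 min at 37 deg C. Beta-arrestin recruitment was read as luminescence after 1 h with detection reagent at ambient temperature.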
gsp ag: activates gsp, the McCune-Albright syndrome mutation; 0.13% of 340,000 active; Potency, µM (titrated, usually from 76.9 µM), for inactives: at the highest dose activation (cAMP increase), hits mostly activators; gsp mutant cells, cAMP HTRF, 30 min; control for the full effect not named in the record; active = well fitted activation curve with a large enough effect; inconclusive = small, poorly fitted or top-dose-only effect, or another doubt; inactive = no such curve, though single readings can be large or run the other way; cell line not stated here;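 note: phosphodiesterase inhibitor Ro 20-1724 added with compounds to block cAMP breakdown; potency is the fitted concentration of half-maximal effect; nearly all actives have a fitted effect of over 60% in size; about a fifth of the inactives were tested at one dose only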
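Cells in DMEM/10% FBS with G418 were pretreated with compounds in DMSO plus […] (300 uM stock) for 30 min at 37C. cAMP was measured by HTRF (cAMP-d2 plus anti-cAMP antibody-K) after 30 min at room temperature.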
gsp antag: antagonists of gsp mutant (McCune-Albright syndrome); AID 624288; 0.4% of 340,000 active; gsp-mutant cells, cAMP HTRF, 30 min; control for the full effect not named in the record; Potency, µM (doses to about 76.9 µM), without a hit: at the top dose activity change, negative = inhibition, actives largely listed as inhibitors; active = falling curve of any shape with a large fitted effect; inconclusive = falling curve, mostly with a smaller effect; inactive = flat or rising curve; cell line not stated here;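 note: intracellular cAMP measured with PDE inhibitor Ro 20-1724 present during compound exposure; potency is the fitted concentration of half-maximal effect; % is set by controls: 0 for no effect and ±100 for the full control effect; nearly all actives have a fitted effect of over 65% in size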
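Measurement of cellular cAMP by homogeneous time-resolved fluorescence following a 30 min compound exposure at 37C. The PDE inhibitor […] was present throughout; the assay buffer was DPBS with 0.05% BSA and 0.005% Tween 20.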
Six1-Eya2 blk: blocks human Six1 binding to Eya2. AlphaScreen GST-Six1/His-Eya2 binding, biochemical; active compounds read low; control for the full effect not named in the record. activity change, % (concentration not given with the values). 0.56% of 360,000 active; in the data active = activity change below about -65%; inconclusive = about -30% to -65%; inactive = above about -30%; note: % is set by controls: 0 for no effect and ±100 for the full control effect
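AlphaScreen with GST-Six1 and His-Eya2 (5X mix: 250 nM and 500 nM), glutathione donor and nickel acceptor beads; buffer 50 mM Tris pH 8.0, 300 mM NaCl, 1 mM TCEP; 1 h at 37 C in the dark.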
CtBP-E1A blk: blocks the CtBP interaction with E1A; AlphaScreen GST-E1A/His-CtBP binding, 1536-well; active compounds read low; control for the full effect not named in the record; activity change, % (concentration not given with the values); 0.49% of 340,000 active; AID 651724; in the data active means activity change below about -65%; inconclusive means about -30% to -65%; inactive means above about -30%; note: % is set by controls: 0 for no effect and ±100 for the full control effect
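In 5 uL wells, 23 nL compound meets equimolar GST-E1A and His-CtBP (5X stock 125 nM each) for 2 h, 37 °C. Beads (5X, 50 ug/mL) then 1 h, 37 °C, dark.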
D2 ag: agonists of human D2 dopamine receptor (beta-arrestin) | P14416 | DiscoveRx PathHunter D2 beta-arrestin, luminescence, 90 min; 100% = 57 uM dopamine signal | activation, % (concentration not given with the values) | 0.084% of 360,000 active | AID 624465; in the data active = activation above about 40%; inconclusive = about 15% to 40%; inactive = below about 15%; note: compound concentration not given in the record; the text of the record calls up to 30% inactive
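DiscoveRx PathHunter D2 beta-arrestin cells (2,100/well) attached overnight, then compound-stimulated 90 min at 37 C in HBSS/10 mM HEPES/0.1% Tween-20 buffer; beta-galactosidase complementation read by luminescence after 1 h at ambient temperature. Dopamine 57 uM final (EC100) as control.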
Numbers without * were called inactive; ? = inconclusive; / = no result given; & = joins results of further samples; [ ] = remark or other dose.

SMILES	D2 PAM	gsp ag	gsp antag	Six1-Eya2 blk	CtBP-E1A blk	D2 ag
Cc1cccc(C)c1NC(=O)C(NC=O)c1ccccc1Cl (configuration not stated)	-7	14%	10%	4	0	-3.3
COc1ccc(/C(O)=C2/C(=O)C(=O)N(CC3CCCO3)C2c2cccc(O)c2)cc1 (configuration not stated)	-11	22%	-1%	8	2	-1.0
Cc1ccc(CNC(=O)c2ccc(CS(=O)Cc3ccccc3Cl)o2)cc1 (configuration not stated)	1	0%	6%	1	0	0.9
CC(=O)c1cccc(NC(=O)CCc2nc3sc4c(c3c(=O)[nH]2)CCCC4)c1	-4	-3%[15.4 µM]	-15%	-8	-3	0.1
O=C1c2ccccc2C(=O)N1CN(C(=O)c1ccccc1)c1ccc(O)cc1	2	-5%	-28%	0	/	1.7
CC(O)c1nc2ccc(C(=O)O)cc2[nH]1 (configuration not stated)	6	?	10%	0	7	-0.1
O=C(Nc1ccc2oc(-c3ccc4ccccc4c3)nc2c1)c1cccs1	2	1%	-3%[15.4 µM]	0	6	0.1
O=S(=O)(Nc1ccc2c(c1)oc1ccccc12)N1CCCC1	18	12%	-12%	3	-5	-0.4
CC1(C)CC(=O)C(N=Nc2cc(C(F)(F)F)ccc2Cl)=C(O)C1	-6	?	8%	-27	-11	-9.7
C/C(=N\NC=O)c1ccncc1	-8	-2%	5%	0	-22	-18
CC(=O)Nc1nc(C)c(-c2csc(Nc3ccccn3)n2)s1	7&-4	15%	-10%&-11%	0&-11	-7	0.8&-0.8
CC(C)N(Cc1ccccc1)C(=O)CN1C(=O)NC(Cc2ccccc2)(c2ccccc2)C1=O (configuration not stated)	4	?	-18%	1	-2	-0.3
O=C1c2cccnc2C(Nc2ccc(S(=O)(=O)N3CCCCCC3)cc2)N1Cc1ccccc1 (configuration not stated)	-9	-23%	-2%	-2	-4	-1.1
Cn1nc(C(C)(C)C)c([N+](=O)[O-])c1C(=O)Nc1ccc(Br)cc1	-16	-7%	?	0	-2	-4.5
Cc1ccc([C@@H]2C[C@H]3[C@@H](CN2S(=O)(=O)c2ccc(Cl)cc2)C(=O)C[C@@H](c2ccc(Cl)cc2)N3S(=O)(=O)c2ccccc2C)cc1	1	?	/	1	-8	-7.6
CC(=O)Oc1ccc(C(=O)NCc2ccc3c(c2)OCO3)cc1	-29	-85%[inhibitor]	5%	-15	/	-2.9
O=C(Nc1cc(Cl)cc(Cl)c1)C1C2C=CC3(O2)C1C(=O)N(CCCN1CCOCC1)C3C(=O)NC1CCCCC1 (configuration not stated)	-15	-4%	8%	-6	-1	-2.5
Cc1[nH]n(C(N)=S)c(=O)c1N=Nc1ccccc1C(F)(F)F	-12	11%	-30%	-8	/	-10
CCCN1CCc2c(sc(NC(=O)CCS(=O)(=O)c3ccccc3)c2C(=O)OC)C1	7	-3%[15.4 µM]	-22%	-8	-7	-1.5
N=c1nc2n(cc1F)C1OC(CO)C(O)C1O2 (configuration not stated)	-13	8%	4%	8	-5	-5.9
O=C(NCc1ccccn1)Nc1ccc(Cl)cc1Cl	-41	9%	2%	-3	-7	-4.7
O=c1c2ccccc2[nH]c(=S)n1CCCN1CCN(c2ccccc2)CC1	?	-10%[15.4 µM]	-4%	3	0	?
CCOCC(=O)Nc1cc(S(=O)(=O)N2CCOCC2)ccc1N1CCCCC1	1	17%[15.4 µM]	/	-5	0	1.1
CCn1c(SCC(=O)N2CCC(C)CC2)nnc1-c1ccco1	-4	9%	-1%	-26	-24	1.0
CCN1CCN(CCNC(=O)CCCCCn2c(=O)[nH]c3cc(C(=O)OC)ccc3c2=O)CC1	-6	18%	-8%	0	-4	-1.4
O=[N+]([O-])c1ccc(S(=O)(=O)NCCCc2ccccc2)cc1	5	1%	2%	-16	-1	1.5
COc1ccccc1Cn1c(C)c(C(=O)NCc2cccc(C)c2)sc1=O	0	/	/	0	-12	7.3
Cc1ccc(S(=O)(=O)N2CCN(c3ncnc4scc(-c5ccc(F)cc5)c34)CC2)cc1	-2	-1%[15.4 µM]	-6%	-6	-8	-2.5
COc1cccc(C(=O)N2CCCC(CCC(=O)NCc3ccc(F)c(F)c3)C2)c1 (configuration not stated)	5	-3%[15.4 µM]	-6%	0	7	7.0
COc1ccc(OC)c(/C=N/NC(=O)c2csc3ccccc23)c1	-8	-4%	-17%	0	-2	-1.1

Entries above that contain a nitro group on carbon:
SMILES	D2 PAM	gsp ag	gsp antag	Six1-Eya2 blk	CtBP-E1A blk	D2 ag
Cn1nc(C(C)(C)C)c([N+](=O)[O-])c1C(=O)Nc1ccc(Br)cc1	-16	-7%	?	0	-2	-4.5
O=[N+]([O-])c1ccc(S(=O)(=O)NCCCc2ccccc2)cc1	5	1%	2%	-16	-1	1.5

Further records:
SMILES	D2 PAM	gsp ag	gsp antag	Six1-Eya2 blk	CtBP-E1A blk	D2 ag
O=C(COC(=O)Cc1ccc(F)cc1)NC1CCCC1	-7	2%	7%	6	3	-0.7
COc1cc(NC(=O)NCCN2CCN(c3ccc(Cl)cc3)CC2)ccc1C	-9	5%	7%	-18	-18	2.9
Cc1c(S(=O)(=O)NCc2ccccc2)c(=O)n(C)c(=O)n1C	6	31%	9%	0	/	-3.7
Cc1cccc(Cn2c(N3CCN(c4ccccc4)CC3)nc3c2c(=O)n(C)c(=O)n3C)c1	-19	13%	3%	-20	4	-2.2
COc1ccc(C(c2c(C)n(C)n(-c3ccccc3)c2=O)c2c(C)n(C)n(-c3ccccc3)c2=O)c(OC)c1OC	-1	-11%[15.4 µM]	-11%	11	0	-7.9
CCOC(=O)N1CCN(S(=O)(=O)c2ccc(C(=O)Nc3nc4ccccc4s3)cc2)CC1	-10	?	3%	5	-4	-6.1
Cc1ccccc1C(=O)NC(=S)N(C)C1CCCCC1	-7	5%	1%	-2	2	-4.9
COc1ccc(C(=O)N2CCN(C(=O)C3CCCO3)CC2)cc1[N+](=O)[O-] (configuration not stated)	0	-23%	2%	-1	6	2.0
COc1ccc(C(=O)C2CCCN(C(=O)/C=C/c3ccccn3)C2)c(C)c1 (configuration not stated)	-9	-9%[15.4 µM]	-13%	-3	1	-2.1
COc1ccc(NS(=O)(=O)c2cccc(C(=O)NCC3(N4CCCCC4)CCCCC3)c2)cc1	-12	20%[15.4 µM]	0%	-6	2	-3.6
O=C(NCCCN1CCCC1=O)c1ccccc1NS(=O)(=O)c1ccc(F)cc1	-5	-2%	-9%	6	8	0.3
Cc1cc([N+](=O)[O-])cc2c1NCC1CC=CC21 (configuration not stated)	-4	-3%	-10%	-4	/	-6.3
COc1ccc(C2NC(=O)NC(C)=C2C(=O)OCC2CCCCC2)cc1OC (configuration not stated)	1	-12%	-9%	-2	/	-4.1
COc1ccc(CSc2nncn2C)cc1[N+](=O)[O-]	-11	-2%[15.4 µM]	6%	-2	5	-2.5
Cc1cccn2c(=O)c(C=C(C#N)C#N)c(N3CCN(C)CC3)nc12	-12	?	9%	-8	-24	-2.5

2 entries from above, comma-delimited.
mol,D2 PAM,gsp ag,gsp antag,Six1-Eya2 blk,CtBP-E1A blk,D2 ag
COc1ccc(C(=O)C2CCCN(C(=O)/C=C/c3ccccn3)C2)c(C)c1 (configuration not stated),-9,-9%[15.4 µM],-13%,-3,1,-2.1
COc1ccc(NS(=O)(=O)c2cccc(C(=O)NCC3(N4CCCCC4)CCCCC3)c2)cc1,-12,20%[15.4 µM],0%,-6,2,-3.6

(more compounds)
SMILES	D2 PAM	gsp ag	gsp antag	Six1-Eya2 blk	CtBP-E1A blk	D2 ag
Cn1nc(-c2ccccc2)cc1NC(=O)[C@@H]1O[C@H](CO)[C@H](O)[C@H](O)[C@H]1O	-19	/	/	8	0	-6.7
Cc1cnc(-c2nnc(N(C)C(=O)c3cccnc3)s2)cn1	5	0%	11%	-14	-12	-5.4
COc1ccc(C(CNC(=O)c2ccc(S(=O)(=O)Nc3ccccc3F)cc2)N(C)C)cc1 (configuration not stated)	-37	?	-6%	1	2	-2.2
Cc1ccc(C)c(NC(=O)C(Sc2cccc[n+]2[O-])c2ccccc2)c1 (configuration not stated)	4	-6%[15.4 µM]	-4%	-2	4	-1.6
Cc1ccc(C(=O)Nc2cccnc2)cc1NC(=O)c1ccco1	-13	1%	16%	0	7	-3.6
Cc1cccc([C@H]2[C@@H]3C=CC[C@@H](C)[C@@H]3C(=O)N2Cc2ccccc2)c1	/	/	-16%	0	4	2.4
O=S(=O)(c1cc(F)ccc1F)N1CCN(C2CCCCC2)CC1	-14	23%[15.4 µM]	5%	3	-2	-0.7
Cc1ccc(NC(=O)CSCC(=O)Nc2ccccc2N2CCCC2)cc1	-7	25%[15.4 µM]	-8%	-9	0	-0.9
CC(CCc1ccccc1)NC(=O)CSc1nnnn1C (configuration not stated)	-15	-2%	3%	1	9	-1.2
CCCn1c2ccccc2c2nnc(SCC(=O)OC)nc21	-2	17%	18%	1	3	-3.1
CCOc1ccc(S(=O)(=O)NCCSc2ccccc2)cc1	-7	-7%	-19%	6	10	-3.0
CN(C)CCn1c2c(c(SCC(=O)Nc3cccc4ccccc34)nc1=O)CCCC2	-24	18%	9%	-20	-3	-2.4
CCc1nc2ccc(C(=O)NCc3ccc4c(c3)OCO4)cn2c1N(C)C(=O)Cc1ccccc1	6	/	/	-5	6	3.0
CN1C[C@@H](CO)O[C@@H](n2cnc3c(N4CCOCC4)ncnc32)C1	-1	/	/	0	6	-2.2
COc1ccc2[nH]c3c(c2c1)CCN1C(=O)C(CC(=O)NCCC2=CCCCC2)C[C@H](C(=O)N(C(C)C)C(C)C)[C@@]31C (some centres not stated)	-12	/	-18%	-29	-18	-3.4

Random excerpt: 2 entries already listed.
SMILES	D2 PAM	gsp ag	gsp antag	Six1-Eya2 blk	CtBP-E1A blk	D2 ag
O=S(=O)(c1cc(F)ccc1F)N1CCN(C2CCCCC2)CC1	-14	23%[15.4 µM]	5%	3	-2	-0.7
CCc1nc2ccc(C(=O)NCc3ccc4c(c3)OCO4)cn2c1N(C)C(=O)Cc1ccccc1	6	/	/	-5	6	3.0

Following part.
SMILES	D2 PAM	gsp ag	gsp antag	Six1-Eya2 blk	CtBP-E1A blk	D2 ag
CCn1c(SCC(O)c2ccccc2)nnc1-c1ccccc1 (configuration not stated)	7	8%	10%	15	2	1.7
CC(=O)Nc1ccc(S(=O)(=O)N2CCN=C2SCc2ccc(C)cc2)cc1	-9	9%	-21%	5	2	-2.4
FC(F)(F)c1cnc(-c2cnc(-c3ccccn3)nc2)c(Cl)c1	-3	-12%[15.4 µM]	2%	-4	/	-0.8
CCC(NC(=O)Cc1c(C)c2c(cc(C)c3c(C)c(C)oc32)oc1=O)C(=O)O (configuration not stated)	0	?	-11%	-22	/	-1.6
Cc1ccc(CN2CCN(CC(=O)NCc3ccccc3)CC2)cc1	-23	3%	1%	0	-7	-0.7
O=C1C(=O)N(CCN2CCCCC2)c2ccccc21	-52	26%	7%	5	-1	-13
COc1ccc(Cl)cc1C(=O)NCC(=O)OCc1ccccc1	-7	-6%[15.4 µM]	-4%	-5	11	-1.1
CCCCOc1ccc(C(=O)NCc2ccncc2)cc1	-2	-1%	-8%	2	3	0.5

Bioassay records deposited in PubChem BioAssay by National Center for Advancing Translational Sciences (NCATS).
